MLL AF4-AF9 inh: inhibitors of AF4 peptide binding to AF9, primary screen, biochemical, AlphaScreen, biotin-AF4 peptide, FLAG-AF9, single point. Protein AF-9 (Homo sapiens), P42568. inhibition, % at 10 µM. 350,000 compounds, 0.47% hits;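 active means every replicate reaching a set inhibition limit, whatever the replicate mean, cut at about 25% in these data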;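 further: 0% = plate neutral control median and 100% = total signal loss; the record names both 10 and 1 µM as test concentration; the first replicate is given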
Target sequence (P42568 whole entry, looked up): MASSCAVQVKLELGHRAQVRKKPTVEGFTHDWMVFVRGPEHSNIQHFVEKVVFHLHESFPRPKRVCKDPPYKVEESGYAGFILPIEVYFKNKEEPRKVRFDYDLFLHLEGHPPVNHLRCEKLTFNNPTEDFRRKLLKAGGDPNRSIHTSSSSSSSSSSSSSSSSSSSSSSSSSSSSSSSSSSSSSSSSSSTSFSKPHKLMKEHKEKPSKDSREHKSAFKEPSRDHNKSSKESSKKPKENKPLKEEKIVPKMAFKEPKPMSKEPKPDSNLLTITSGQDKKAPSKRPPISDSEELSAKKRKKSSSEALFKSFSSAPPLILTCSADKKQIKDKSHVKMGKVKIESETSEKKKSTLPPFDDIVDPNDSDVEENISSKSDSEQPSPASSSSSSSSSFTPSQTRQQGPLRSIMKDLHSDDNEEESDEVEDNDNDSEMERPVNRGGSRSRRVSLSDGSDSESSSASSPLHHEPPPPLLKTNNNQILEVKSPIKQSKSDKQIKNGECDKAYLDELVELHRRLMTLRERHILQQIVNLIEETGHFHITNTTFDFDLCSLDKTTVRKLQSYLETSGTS
rRNA inh HTS: reduced GFP signal of wild-type E. coli, primary screen, bacterial rRNA inhibitor project, GFP/RFP fluorescence, OD600, single point; E. coli WT GFP vs humanized-ribosome RFP mutants, 24 h; stronger effect = lower value; DMSO median 0, no signal -100; GFP signal change (wild-type ribosome), % (test concentration not listed); 350,000 compounds, 1.6% hits;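 active means significant combined selectivity score with lowered wild-type GFP, culture density cut under 30%, mutant RFP and density less affected; inactive means any of these conditions unmet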; further: one replicate is shown; some compounds called inactive have numbers as strong as hits
rRNA inh HTS OD600: also measured in rRNA inh HTS; calls as there; OD600 change, %; measured here: OD600 growth;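 optical density of the mix in the first replicate; 0 = DMSO median and -100 = no signal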
rRNA inh HTS RFP: further read-out of rRNA inh HTS, marked with its call; RFP signal change, %; measured here: RFP humanized mutant strains;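 first replicate; 0 = DMSO median and -100 = no signal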
Active calls of the source: *. These rows are one share of the data; the hit share may differ from the screen's.

`CC(=O)N(C[C@@H]1N[C@@H](CO)[C@@H]1c1ccc(-c2ccccc2)cc1)C(C)C` gave MLL AF4-AF9 inh 1.7, rRNA inh HTS 0, rRNA inh HTS OD600 -2 and rRNA inh HTS RFP -2.3.
`CCCCC(=O)N(C)c1c(C)nc2ccc(C(=O)N3CCN(S(=O)(=O)CC)CC3)cn12` gave MLL AF4-AF9 inh -5.8, rRNA inh HTS 2, rRNA inh HTS OD600 19 and rRNA inh HTS RFP 1.3.
C[C@H]1CN([C@@H](C)CO)C(=O)c2cccc(NC(=O)Nc3ccc(C(F)(F)F)cc3)c2O[C@@H]1CN(C)C(=O)Nc1cccc2ccccc12 was read as MLL AF4-AF9 inh 4.1, rRNA inh HTS 4, rRNA inh HTS OD600 13 and rRNA inh HTS RFP 2.3.
`C[C@@H]1CN([C@@H](C)CO)C(=O)c2cc(C#CCN(C)C)cnc2O[C@@H]1CN(C)C(=O)c1ccc2c(c1)OCO2` gave MLL AF4-AF9 inh -4.3, rRNA inh HTS 4, rRNA inh HTS OD600 5 and rRNA inh HTS RFP 0.1.
C[C@H]1CN([C@@H](C)CO)C(=O)c2cccc(NS(C)(=O)=O)c2O[C@H]1CN(C)C(=O)Nc1ccccc1 was read as MLL AF4-AF9 inh -2.8, rRNA inh HTS 5, rRNA inh HTS OD600 2 and rRNA inh HTS RFP 0.6.
For C[C@@H]1CN([C@@H](C)CO)C(=O)c2c(c3ccccc3n2C)-c2ccccc2CO[C@@H]1CN(C)Cc1ccc(Oc2ccccc2)cc1 the results were MLL AF4-AF9 inh 2.4, rRNA inh HTS 1, rRNA inh HTS OD600 12 and rRNA inh HTS RFP -2.6.
`O=C([C@@H]1[C@@H](CO)[C@@H]2Cn3c(cccc3=O)[C@H]1N2C(=O)c1ccc(F)cc1)N1CCCCC1` gave MLL AF4-AF9 inh 0.2, rRNA inh HTS 3, rRNA inh HTS OD600 2 and rRNA inh HTS RFP -2.5.
For COc1cccc(-c2ccc3n(c2=O)C[C@@H]2[C@@H](CO)[C@H](C(=O)NCCN4CCCCC4)N(C)[C@H]32)c1 the results were MLL AF4-AF9 inh 2.4, rRNA inh HTS 2, rRNA inh HTS OD600 -1 and rRNA inh HTS RFP 0.5.
C[C@H]1CN([C@@H](C)CO)C(=O)c2cccc(NS(=O)(=O)c3ccccc3)c2O[C@@H]1CN(C)C(=O)Nc1ccccc1 was read as MLL AF4-AF9 inh -11, rRNA inh HTS -1, rRNA inh HTS OD600 1 and rRNA inh HTS RFP 2.5.
`CC(=O)N(C)C[C@@H]1Oc2cc(C#CC3CCCCC3)ccc2S(=O)(=O)N([C@H](C)CO)C[C@H]1C` gave MLL AF4-AF9 inh 4.6, rRNA inh HTS -7, rRNA inh HTS OD600 -32 and rRNA inh HTS RFP 11.
Screening COc1ccc(-c2cnc3c(c2)C(=O)N([C@@H](C)CO)C[C@H](C)[C@@H](CN(C)Cc2ccc(C(=O)O)cc2)O3)cc1 returned MLL AF4-AF9 inh -2.0, rRNA inh HTS -1, rRNA inh HTS OD600 4 and rRNA inh HTS RFP -4.3.
Screening CC(C)Oc1ccc(S(=O)(=O)N2CCOCC2)cc1NC(=O)CN1C(=O)c2ccccc2C1=O returned MLL AF4-AF9 inh 1.7, rRNA inh HTS 7, rRNA inh HTS OD600 5 and rRNA inh HTS RFP 0.9.
COc1cccc(-c2cnc3c(c2)C(=O)N([C@@H](C)CO)C[C@H](C)[C@@H](CN(C)Cc2ccc(F)cc2)O3)c1 was read as MLL AF4-AF9 inh 6.2, rRNA inh HTS -3, rRNA inh HTS OD600 2 and rRNA inh HTS RFP 1.6.
Screening COc1ccc(S(=O)(=O)N(C)C[C@@H]2Oc3ccc(NC(=O)NC4CCCCC4)cc3C(=O)N([C@@H](C)CO)C[C@@H]2C)cc1 returned MLL AF4-AF9 inh 0.7, rRNA inh HTS -5, rRNA inh HTS OD600 -11 and rRNA inh HTS RFP 0.9.
For Cc1ccc(S(=O)(=O)Nc2cccc3c2O[C@@H](CN(C)C)[C@H](C)CN([C@@H](C)CO)C3=O)cc1 the results were MLL AF4-AF9 inh 1.2, rRNA inh HTS 4, rRNA inh HTS OD600 6 and rRNA inh HTS RFP -0.5.
O=C(N[C@@H]1C=C[C@@H](CC(=O)N2CCN(c3ccccc3)CC2)O[C@@H]1CO)c1ccccc1 was read as MLL AF4-AF9 inh -0.4, rRNA inh HTS 2, rRNA inh HTS OD600 6 and rRNA inh HTS RFP 2.5.
C[C@@H]1CN([C@@H](C)CO)C(=O)c2cc(NC(=O)c3ccccc3)ccc2O[C@@H](C)CCCCO[C@H]1CN(C)C(=O)c1ccncc1 was read as MLL AF4-AF9 inh -1.2, rRNA inh HTS -2, rRNA inh HTS OD600 2 and rRNA inh HTS RFP -1.5.
Screening CCCNC(=O)N1[C@H](C#N)[C@H](c2ccc(-c3cccnc3)cc2)[C@H]1CO returned MLL AF4-AF9 inh -3.1, rRNA inh HTS -4, rRNA inh HTS OD600 6 and rRNA inh HTS RFP -3.4.
For CC(C)CC#Cc1ccc2c(c1)O[C@@H](CN(C)C(=O)C1CCCCC1)[C@@H](C)CN([C@H](C)CO)S2(=O)=O the results were MLL AF4-AF9 inh -1.6, rRNA inh HTS 3, rRNA inh HTS OD600 9 and rRNA inh HTS RFP 1.4.
For O=C(Nc1cccc(Br)c1)Oc1cccc2cccnc12 the results were MLL AF4-AF9 inh -2.4, rRNA inh HTS -21, rRNA inh HTS OD600 -18 and rRNA inh HTS RFP -6.7.
For CCCNC(=O)C[C@H]1CC[C@@H]2[C@H](COc3ccc(NS(=O)(=O)c4ccccc4C)cc3C(=O)N2C)O1 the results were MLL AF4-AF9 inh -0.7, rRNA inh HTS 0, rRNA inh HTS OD600 0 and rRNA inh HTS RFP 2.1.
`O=C(NC[C@@H]1[C@@H](c2ccccc2)[C@H](CO)N1C(=O)Cc1ccncc1)C1CCC1` gave MLL AF4-AF9 inh -3.9, rRNA inh HTS 0, rRNA inh HTS OD600 -1 and rRNA inh HTS RFP 1.0.
`COCC(=O)Nc1ccc2c(c1)C(=O)N(C)C[C@@H](OC)[C@@H](C)CN(Cc1cc(F)ccc1F)[C@H](C)CO2` gave MLL AF4-AF9 inh -1.7, rRNA inh HTS -6, rRNA inh HTS OD600 -14 and rRNA inh HTS RFP -0.3.
CN(C)C(=O)[C@@H]1[C@@H](CO)[C@@H]2Cn3c(ccc(C4=CCCC4)c3=O)[C@H]1N2CCC(F)(F)F was read as MLL AF4-AF9 inh -12, rRNA inh HTS 0, rRNA inh HTS OD600 10 and rRNA inh HTS RFP -2.7.

Of the compounds above, these contain an aryl methoxy group.
For COc1cccc(-c2ccc3n(c2=O)C[C@@H]2[C@@H](CO)[C@H](C(=O)NCCN4CCCCC4)N(C)[C@H]32)c1 the results were MLL AF4-AF9 inh 2.4, rRNA inh HTS 2, rRNA inh HTS OD600 -1 and rRNA inh HTS RFP 0.5.
Screening COc1ccc(-c2cnc3c(c2)C(=O)N([C@@H](C)CO)C[C@H](C)[C@@H](CN(C)Cc2ccc(C(=O)O)cc2)O3)cc1 returned MLL AF4-AF9 inh -2.0, rRNA inh HTS -1, rRNA inh HTS OD600 4 and rRNA inh HTS RFP -4.3.
COc1cccc(-c2cnc3c(c2)C(=O)N([C@@H](C)CO)C[C@H](C)[C@@H](CN(C)Cc2ccc(F)cc2)O3)c1 was read as MLL AF4-AF9 inh 6.2, rRNA inh HTS -3, rRNA inh HTS OD600 2 and rRNA inh HTS RFP 1.6.
Screening COc1ccc(S(=O)(=O)N(C)C[C@@H]2Oc3ccc(NC(=O)NC4CCCCC4)cc3C(=O)N([C@@H](C)CO)C[C@@H]2C)cc1 returned MLL AF4-AF9 inh 0.7, rRNA inh HTS -5, rRNA inh HTS OD600 -11 and rRNA inh HTS RFP 0.9.

(continued)
`C[C@H]1CN([C@@H](C)CO)S(=O)(=O)c2ccc(-c3cccnc3)cc2O[C@H]1CN(C)Cc1cncnc1` gave MLL AF4-AF9 inh -1.5, rRNA inh HTS 1, rRNA inh HTS OD600 8 and rRNA inh HTS RFP 1.3.
For COCC(=O)Nc1ccc2c(c1)OC[C@H](C)N(CC1CC1)C[C@@H](C)[C@H](OC)CN(C)C2=O the results were MLL AF4-AF9 inh 0.8, rRNA inh HTS 4, rRNA inh HTS OD600 4 and rRNA inh HTS RFP -2.1.
Screening Cc1ccc(CC2(C)C(=O)Nc3ccc(OC(F)(F)F)cc32)cc1 (configuration not stated) returned MLL AF4-AF9 inh -3.1, rRNA inh HTS 1, rRNA inh HTS OD600 -5 and rRNA inh HTS RFP -1.3.
For COc1ccc(S(=O)(=O)Nc2ccc3c(c2)C(=O)N([C@H](C)CO)C[C@H](C)[C@H](CN(C)C(=O)Nc2ccccc2)O3)cc1 the results were MLL AF4-AF9 inh 0.2, rRNA inh HTS -4, rRNA inh HTS OD600 -6 and rRNA inh HTS RFP 2.5.
`C[C@@H]1CN([C@H](C)CO)C(=O)c2cccc(NC(=O)C3CCOCC3)c2O[C@@H]1CN(C)Cc1ccc(Cl)c(Cl)c1` gave MLL AF4-AF9 inh -3.2, rRNA inh HTS -1, rRNA inh HTS OD600 -5 and rRNA inh HTS RFP 1.3.
CNc1ncnc2c1ncn2[C@H]1CN(C2CCCC2)C[C@@H](CO)O1 was read as MLL AF4-AF9 inh -4.8, rRNA inh HTS 17, rRNA inh HTS OD600 18 and rRNA inh HTS RFP 3.4.
Screening CO[C@H]1CN(C)C(=O)c2ccc(NC(=O)C3CCC3)cc2OC[C@H](C)N(Cc2ccncc2)C[C@H]1C returned MLL AF4-AF9 inh -5.2, rRNA inh HTS -5, rRNA inh HTS OD600 -2 and rRNA inh HTS RFP -2.0.
`COc1ccc(S(=O)(=O)N[C@H]2CC[C@@H](CC(=O)NCCc3ccccc3)O[C@@H]2CO)cc1` gave MLL AF4-AF9 inh -2.3, rRNA inh HTS 4, rRNA inh HTS OD600 6 and rRNA inh HTS RFP -1.2.
CN1c2ccc(C#Cc3cccnc3)cc2[C@H]2[C@H](CCN2S(=O)(=O)c2ccc(F)cc2)[C@@H]1CO was read as MLL AF4-AF9 inh -10, rRNA inh HTS -3, rRNA inh HTS OD600 -4 and rRNA inh HTS RFP -0.8.
`CCCN(C)C[C@@H]1OCCCC[C@H](C)Oc2ccc(NC(=O)CCC(F)(F)F)cc2C(=O)N([C@H](C)CO)C[C@@H]1C` gave MLL AF4-AF9 inh -2.0, rRNA inh HTS 2, rRNA inh HTS OD600 -5 and rRNA inh HTS RFP -1.4.
Screening COc1ccc2c3c(n(C)c2c1)[C@@H](CO)N(C(=O)CN1CCOCC1)CC31CN(C(=O)C2CC2)C1 returned MLL AF4-AF9 inh -3.5, rRNA inh HTS 2, rRNA inh HTS OD600 2 and rRNA inh HTS RFP 0.6.
`COc1ccccc1S(=O)(=O)N[C@H]1CC[C@H](CCNC(=O)C2CCCC2)O[C@@H]1CO` gave MLL AF4-AF9 inh -17, rRNA inh HTS 1, rRNA inh HTS OD600 3 and rRNA inh HTS RFP -2.7.
`Cc1nn(C)cc1NC(=O)C[C@@H]1CC[C@@H]2[C@H](COc3ccc(NC(=O)NC(C)C)cc3C(=O)N2C)O1` gave MLL AF4-AF9 inh -0.3, rRNA inh HTS 1, rRNA inh HTS OD600 0 and rRNA inh HTS RFP -1.3.
Fc1cccc(Cl)c1C1SCc2nc3ccccc3n21 (configuration not stated) was read as MLL AF4-AF9 inh 0.1, rRNA inh HTS -15, rRNA inh HTS OD600 -40 and rRNA inh HTS RFP -4.9.
For CC(=O)N1CCCCN2[C@H](C1)[C@@H](c1ccc(-c3cccc(C(=O)N(C)C)c3)cc1)[C@@H]2CO the results were MLL AF4-AF9 inh -6.6, rRNA inh HTS 3, rRNA inh HTS OD600 10 and rRNA inh HTS RFP -4.4.
`C[C@H](CO)N1C[C@H](C)[C@@H](CN(C)C(=O)c2ccccc2)Oc2cc(-c3cccc(C#N)c3)ccc2S1(=O)=O` gave MLL AF4-AF9 inh -0.5, rRNA inh HTS -7, rRNA inh HTS OD600 -17 and rRNA inh HTS RFP 4.0.
CCNC(=O)C[C@@H]1CC[C@@H]2[C@@H](COc3ccc(NC(=O)c4cc(C)on4)cc3C(=O)N2C)O1 was read as MLL AF4-AF9 inh -0.8, rRNA inh HTS 0, rRNA inh HTS OD600 1 and rRNA inh HTS RFP 1.1.
For CC=Cc1ccc2n(c1=O)C[C@@H]1[C@@H](CO)[C@H](C(=O)NCc3ccc4c(c3)OCO4)[C@H]2N1C(=O)C1CC1 (mixture of isomers) the results were MLL AF4-AF9 inh 1.6, rRNA inh HTS 1, rRNA inh HTS OD600 4 and rRNA inh HTS RFP 1.3.
CCCc1cn(CC[C@@H]2CC[C@H](NC(=O)C3CCCCC3)[C@H](CO)O2)nn1 was read as MLL AF4-AF9 inh -1.4, rRNA inh HTS 2, rRNA inh HTS OD600 3 and rRNA inh HTS RFP -1.0.
C[C@@H]1CN([C@@H](C)CO)C(=O)Cc2cc(NC(=O)Cn3cnnn3)ccc2O[C@@H]1CN(C)Cc1ccc(Cl)c(Cl)c1 was read as MLL AF4-AF9 inh 5.6, rRNA inh HTS -2, rRNA inh HTS OD600 -14 and rRNA inh HTS RFP 3.7.

From PubChem BioAssay
